Assay outcomes (PubChem BioAssay)
Mtb growth: M. tuberculosis H37Rv growth inhibitors, H37Rv strain (AID 1626); M. tuberculosis H37Rv growth inhibition; higher % means a stronger effect; inhibition, % at 10 µM, or IC50 in µM where a hit was titrated; 220,000 compounds, 0.95% hits;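 active = confirmed in a dose series; inconclusive = inhibition above 80% but not taken into the dose series; inactive = below 80% or under 30% at every dose of the series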;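 also: bacteria incubated seven days before Alamar blue readout; 0% = bacteria only wells and 100% = bacteria with antibiotic wells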
Arbovirus inh: antivirals against arbovirus infection; arbovirus infection cell-based antiviral screen; inhibition, % at 10 µM; 200,000 compounds, 0.37% hits;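 active = inhibition from about 30%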;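 also: bluetongue infection of BSR cells; cell survival read as ATP light after 72 h; 0% = infected wells without compound and 100% = uninfected wells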
YopH PTP inh: inhibitors of Yersinia enterocolitica YopH tyrosine phosphatase; 140,000 compounds, 0.16% hits; inhibition, %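 (about 10 µM by stock and volumes)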; fluorescence Ex485/Em525;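 active = inhibition of 50% or more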;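 also: controls were vehicle for no effect and minimum signal wells for full effect; inactives centre near -20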
RecA splice inh: inhibitors of M. tuberculosis RecA intein splicing. AID 2221. P9WHJ3. cell-free RecA intein splicing, fluorescence. inhibition, %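 (about 9 µM by stock and volumes)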. 290,000 compounds, 0.75% hits; in the data active = inhibition above about 30%; inconclusive = no clear call, values can overlap the other calls;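 also: 0% = vehicle wells and 100% = reference inhibitor control wells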
Target sequence (P9WHJ3 whole entry, looked up, canonical isoform): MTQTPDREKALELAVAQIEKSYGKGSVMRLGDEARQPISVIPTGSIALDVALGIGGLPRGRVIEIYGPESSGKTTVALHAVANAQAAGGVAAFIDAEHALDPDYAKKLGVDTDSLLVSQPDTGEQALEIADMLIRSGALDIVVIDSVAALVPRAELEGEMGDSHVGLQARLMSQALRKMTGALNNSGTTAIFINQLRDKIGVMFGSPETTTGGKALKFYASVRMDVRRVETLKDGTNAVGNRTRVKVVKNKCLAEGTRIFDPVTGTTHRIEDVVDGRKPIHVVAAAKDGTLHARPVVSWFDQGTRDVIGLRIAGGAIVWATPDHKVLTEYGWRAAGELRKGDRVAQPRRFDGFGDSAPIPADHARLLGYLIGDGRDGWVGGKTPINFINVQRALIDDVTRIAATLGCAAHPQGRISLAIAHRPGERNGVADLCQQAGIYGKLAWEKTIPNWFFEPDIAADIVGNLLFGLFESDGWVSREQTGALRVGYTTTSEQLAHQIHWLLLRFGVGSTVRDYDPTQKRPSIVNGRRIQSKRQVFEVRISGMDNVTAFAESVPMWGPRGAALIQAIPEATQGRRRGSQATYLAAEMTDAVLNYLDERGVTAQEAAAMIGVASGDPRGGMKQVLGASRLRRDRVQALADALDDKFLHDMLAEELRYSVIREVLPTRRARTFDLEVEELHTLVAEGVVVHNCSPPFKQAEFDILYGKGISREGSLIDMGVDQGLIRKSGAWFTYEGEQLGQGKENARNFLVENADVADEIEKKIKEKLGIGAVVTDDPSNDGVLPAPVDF
Mtb bLac sens: beta-lactam sensitization of Mtb H37Rv. M. tuberculosis H37Rv growth with meropenem, percent inhibition; hits of this screen are not shown here. inhibition, % at 25 µM. 330,000 compounds, 0.27% hits;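 active = about 74% or more and at least 40 points above the plate without the antibiotic, then above 30% in a dose series; inconclusive = first-round hits that could not be retested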;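 also: growth measured after seven days incubation then overnight dye step; 0% = bacteria only wells and 100% = bacteria with antibiotic; twin plates without the antibiotic show which effects depend on it; some results filed as inactive read as strong as hits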
Arbovirus inh repeat: recorded beside Arbovirus inh, whose call it bears; inhibition, %; measured here: 10K subset replicate screen; many hits read low in the repeat;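 first of two repeat runs on a subset; 0% = infected and 100% = uninfected wells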
Active calls of the source: *; ? = inconclusive; . = not tested or not shown. An excerpt. The share of hits here may be higher or lower than overall.

SMILES	Mtb growth	Arbovirus inh	YopH PTP inh	RecA splice inh	Mtb bLac sens	others
Cc1cc(N/N=C2\CC(C)CC(C)(C)C2)nc2ccccc12 (centres undefined)	-2%	-8	.	5.5	9
COC(=O)Cc1ccc(NC(=S)NCCSc2ccc(C)cc2)cc1	3%	6	.	1.9	0
Cc1cccc(CN2CCN(C(C)C(=O)NC(C)c3ccccc3)CC2)c1 (centres undefined)	.	.	.	-1.2	-1
CCOC(=O)c1nnn(-c2nonc2-n2cccc2)c1CN1CCC(C)CC1	6%	4	-6	10	-3
COC(=O)c1ccccc1NC(=O)c1cnn2c(C(F)F)cc(C3CC3)nc12	18%	1	-37	8.9	47
CC1CCCCC1NC(=O)Cn1c(=O)oc2cc(S(=O)(=O)N3CCCC3)ccc21 (centres undefined)	.	.	.	1.1	-9
CCOc1cc(C(=O)OCC(=O)Nc2cc(C)on2)cc(OCC)c1OCC	2%	-8	-13	-0.7	17
O=C(NCCc1ccccc1)C(c1ccccc1)N(C(=O)c1csnn1)C1CC1 (centres undefined)	-1%	-3	.	1.7	-4
CCCNC(=O)c1cccc(Cn2cc(Br)c([N+](=O)[O-])n2)c1	14%	-12	-14	-0.6	3
S=C(NCCSCc1ccccc1Cl)Nc1ccccc1	43%	-29	-1	10.0	84
Cc1ccccc1NC(=S)Nc1cccc([N+](=O)[O-])c1	1%	5	-27	0.1	-4
CCOc1ccc(-c2nn(-c3ccccc3)cc2/C=C2\SC(=S)N(Cc3ccco3)C2=O)cc1	-2%	-3	-23	2.5	-1
CC1(C)CC(=O)c2c(O)cc(O)cc2O1	1%	4	-8	7.5	-11
C#CCOCCOCCOCCNc1nc(N2CCN(C(=O)[C@H]([C@@H](C)CC)n3cc([C@@H](N)Cc4ccc(O)cc4)nn3)CC2)nc(N2CCN(C(=O)[C@H]([C@@H](C)CC)n3cc([C@@H](N)CC(C)C)nn3)CC2)n1	10%	-2	.	3.5	54
CCCOc1ccc(N2C(=O)CC(N(Cc3ccccc3)N=O)C2=O)cc1 (centres undefined)	8%	.	.	.	2
Cc1cc(C)c2c3c(sc2n1)C(c1ccccc1)C(C#N)=C(N)O3 (centres undefined)	.	-4	-6	-2.0	.
Cc1c(Br)c([N+](=O)[O-])nn1CC(=O)Nc1sc2c(c1C(=O)OC(C)C)CCC(C)C2 (centres undefined)	0%	1	-10	-0.9	8
C=C1CSc2nc3ccccc3c(=O)n21	-38%	6	-17	1.7	-11
CC(C)c1cc(C(C)C)c(S(=O)(=O)N2CCNCC2)c(C(C)C)c1	.	.	.	1.3	11
O=C(CN1CCN(S(=O)(=O)N2CCOCC2)CC1)Nc1cc(Cl)cc(Cl)c1	.	.	.	-0.7	2

The final 2 compounds of the part above come first, to join the parts.
SMILES	Mtb growth	Arbovirus inh	YopH PTP inh	RecA splice inh	Mtb bLac sens	others
CC(C)c1cc(C(C)C)c(S(=O)(=O)N2CCNCC2)c(C(C)C)c1	.	.	.	1.3	11
O=C(CN1CCN(S(=O)(=O)N2CCOCC2)CC1)Nc1cc(Cl)cc(Cl)c1	.	.	.	-0.7	2
CCN(CC(=O)NCc1cccs1)S(=O)(=O)c1ccc(F)cc1	.	.	.	2.0	-1
O=C(NC1CCCc2ccccc21)C1CCN(S(=O)(=O)N2CCCCCC2)CC1 (centres undefined)	-1%	-4	-44	-1.2	-8
Fc1ccc(-c2nn3c(C4COc5ccccc5O4)nnc3s2)cc1 (centres undefined)	.	-11	-28	0.5	-4
CCOC(=O)c1cccc(NC(=O)CC2Oc3ccccc3NC2=O)c1 (centres undefined)	.	.	.	-2.5	-1
CCCc1ccc2oc(C(=O)N(Cc3ccncc3)CC3CCCO3)c(C)c2c1 (centres undefined)	.	.	.	11	41
O=C(Nc1cccc(NC(=O)c2cccc(F)c2)n1)c1cccc(F)c1	.	.	.	-0.1	57
O=C(NCc1nc2ccccc2[nH]1)c1cccc(S(=O)(=O)N2CCOCC2)c1	-1%	1	10	-6.4	-7
COc1ccc(NC(=O)CSc2nnc(CN3CCOCC3)n2-c2ccccc2)cc1Cl	1%	0	-27	-2.3	-7
COc1cc(C(C)=O)ccc1Oc1cnccn1	-5%	7	.	-0.1	8
Cc1ccc(OCCOCCN2CCCC2)c(Br)c1	.	.	.	0.4	-28
CN1CCN(c2cc(=O)n(-c3ccc(Cl)cc3)c(=O)[nH]2)CC1	-5%	-1	.	-2.1	-1	Arbovirus inh repeat=-1
Cn1cc(CNC(=O)C2CCC(=O)N(Cc3ccccc3F)C2)cn1 (centres undefined)	.	.	.	0.5	?
CC(C)CC(=O)c1c[nH]c(C(=O)NCc2ccc(F)cc2)c1	.	.	.	0.5	3
O=C(CSc1nc2c([nH]c3ccccc32)c(=O)n1-c1ccc(F)cc1)NCc1ccco1	.	13	-10	-0.8	4
CC(=O)N(C)c1ccc(OCC(O)Cn2c(C)nc3ccccc32)cc1 (centres undefined)	8%	17	.	-0.1	-3
O=C(Cc1ccc(Br)cc1)NNC(=O)Nc1ccc(Cl)cc1	-6%	9	.	-2.1	-7
COc1ccc(N2C(=O)CC(Cc3ccccc3)C2=O)cc1 (centres undefined)	-2%	-5	-33	-0.4	15
CC(=O)Nc1ccc(S(=O)(=O)Oc2cccc(N3C(=O)C4CCCCC4C3=O)c2)cc1 (centres undefined)	-4%	8	-33	0.7	-4
CC(C)COc1cccc(-c2cc(C(=O)N/N=C/c3ccncc3)c3ccccc3n2)c1	.	.	.	2.9	-4
O=C(O)c1ccccc1C(=O)OCc1ccccc1	2%	-1	-2	-0.4	0
Cc1cccc(NC(=O)c2ccc(S(=O)(=O)N3CCCCCC3)cc2)n1	.	.	.	1.9	-2
Cc1ccc(-c2cc(Cc3cccs3)c(=O)[nH]n2)cc1	2%	.	.	-3.7	-12
Cc1onc(-c2c(Cl)cccc2Cl)c1C(=O)N(C)Cc1ccccc1	.	.	.	0.4	-2
O=C1c2ccccc2C(=O)N1CCCn1ccnc1	.	.	.	1.8	4
FC(F)Oc1ccc(NC(=S)Nc2ccc3cn[nH]c3c2)cc1	0%	.	.	14	22
CCCCCCCNC1=CC(=O)CC(c2ccccc2)C1 (centres undefined)	0%	-28	-22	9.4	99
CCn1nc(C)cc1C(=O)Sc1ccc(C)cc1	2%	.	.	0.2	-11
CCCCOc1ccc(NC(=O)CN2CCN(C(=O)OCC)CC2)cc1	-7%	2	16	0.6	-7
COc1cccc(NC(=O)COC(=O)/C=C/c2ccc(Cl)cc2Cl)c1	1%	1	-1	-0.5	17
Cn1c(CCNC(=O)c2cc(COc3ccc(F)c(F)c3)on2)nc2ccccc21	.	.	.	0.4	-2

By substructure, the entries above with a thiophene ring, fused or not
SMILES	Mtb growth	Arbovirus inh	YopH PTP inh	RecA splice inh	Mtb bLac sens	others
Cc1cc(C)c2c3c(sc2n1)C(c1ccccc1)C(C#N)=C(N)O3 (centres undefined)	.	-4	-6	-2.0	.
Cc1c(Br)c([N+](=O)[O-])nn1CC(=O)Nc1sc2c(c1C(=O)OC(C)C)CCC(C)C2 (centres undefined)	0%	1	-10	-0.9	8
CCN(CC(=O)NCc1cccs1)S(=O)(=O)c1ccc(F)cc1	.	.	.	2.0	-1
Cc1ccc(-c2cc(Cc3cccs3)c(=O)[nH]n2)cc1	2%	.	.	-3.7	-12

Going on with the list.
SMILES	Mtb growth	Arbovirus inh	YopH PTP inh	RecA splice inh	Mtb bLac sens	others
Cc1cc(C)cc(-c2nnc(SCC(=O)NCc3cccs3)o2)c1	8%	11	11	2.9	7
O=S(=O)(c1ccccc1)N(Cc1ccccn1)Cc1ccccn1	.	.	.	-2.0	-7
COc1cc(/C=N/NC(=O)c2nonc2C)ccc1O	-13%	2	.	-0.5	0
COc1ccc(N2CCN(C(=O)Cn3cnc4c(cnn4-c4ccccc4)c3=O)CC2)cc1	9%	1	.	0.0	-7
CC1OC23CCCCC2C(C#N)(C(=N)O3)C1(C#N)C#N (centres undefined)	1%	2	-37	-126	-2
Cc1cc(Br)ccc1NC(=S)N1CCOCC1	0%	.	.	0.6	-6
COc1ccc(/C=N/n2c(-c3n[nH]c4c3CCC4)n[nH]c2=S)c(OC)c1OC	-5%	.	.	.	-5
CSc1ccc(C2N=C(c3ccccc3)NO2)cc1 (centres undefined)	.	.	.	0.8	-2
CN1C(=O)c2c(sc3c2CCCC3)NC1c1ccccc1O (centres undefined)	4%	-8	11	0.8	2
Cc1cc(NC(=O)c2cnn3cccnc23)n(-c2ccccc2)n1	8%	-6	-33	1.6	-6

The list goes on (four carried over from the part before).
SMILES	Mtb growth	Arbovirus inh	YopH PTP inh	RecA splice inh	Mtb bLac sens	others
COc1ccc(/C=N/n2c(-c3n[nH]c4c3CCC4)n[nH]c2=S)c(OC)c1OC	-5%	.	.	.	-5
CSc1ccc(C2N=C(c3ccccc3)NO2)cc1 (centres undefined)	.	.	.	0.8	-2
CN1C(=O)c2c(sc3c2CCCC3)NC1c1ccccc1O (centres undefined)	4%	-8	11	0.8	2
Cc1cc(NC(=O)c2cnn3cccnc23)n(-c2ccccc2)n1	8%	-6	-33	1.6	-6
NC(N)=Nc1nc2cc([N+](=O)[O-])ccc2o1	-1%	-4	.	-1.4	6
CCN1/C(=C/C(=S)Nc2ccccc2)Sc2ccccc21	3%	.	.	-14	70
CN(C)S(=O)(=O)c1cc(NC(=O)CN2CCc3ccccc32)ccc1Cl	-1%	2	.	3.1	-5
O=C(NCc1ccccn1)c1ccc(Cl)cc1Cl	-13%	-6	-14	-1.4	-8
Cc1cccc(C)c1NC(=O)C(=O)NCCCN1CCOCC1	-3%	0	-31	-1.8	7
O=C(Nc1ccccc1Br)c1cc[n+]([O-])cc1	.	.	.	-0.2	3
O=C(O)C(=O)Nc1ccc(NC(=O)C(c2ccccc2)c2ccccc2)cc1	.	.	.	2.3	-6
O=C1C2CCCN2C(=S)N1Cc1ccccc1 (centres undefined)	-4%	10	.	0.5	-5
COc1ccccc1CCNC(=O)c1cc(-c2ccccn2)nc2ccc(Br)cc12	2%	-9	.	-2.5	0
CC(C)(C)OC(=O)N1CCOCCOCCN(C(=O)OC(C)(C)C)CCOCC1	-3%	-4	-35	5.1	0
CC(=O)N1CCN(C(=O)CCc2c[nH]c3ccccc23)CC1	4%	11	-20	-2.2	-1
CCn1c(COc2ccccc2)nnc1SCC(=O)Nc1cc(OC)ccc1OC	-11%	9	-9	1.3	-13
COC(=O)c1ccc(C2/C(=C(/O)c3ccc4c(c3)CC(C)O4)C(=O)C(=O)N2Cc2ccncc2)cc1 (centres undefined)	.	.	.	0.1	-5
Cn1c(SCC(=O)OCc2ccccc2)nnc1-c1ccco1	1%	-1	4	3.8	-1
O=C1N=C(N2CCN(c3ccccc3)CC2)S/C1=C/c1ccco1	-5%	.	.	4.0	5
CC(=O)Nc1ccc(NC(=O)C2CC(=O)N(c3ccc(Cl)cc3)C2)cc1 (centres undefined)	.	.	.	0.0	1
COC(=O)C(NS(=O)(=O)c1ccccc1Cl)c1ccccc1 (centres undefined)	39%	0	.	-1.7	63
COc1ccccc1-c1cc(C(F)(F)F)nc(S(=O)(=O)CCCC(=O)NCc2ccc(F)cc2)n1	-2%	-35	.	47*	0
CN(C(=O)CCc1nnc(-c2ccc(-c3ccccc3)cc2)o1)C1CCOCC1	.	.	.	3.2	-8
Cc1ccc(NC(=O)c2sc3ncn(CC(=O)N4CCN(c5ccccn5)CC4)c(=O)c3c2C)cc1F	.	.	.	-0.1	0
O=C(O)c1ccc2c(c1)OCCCO2	1%	.	.	-22	2
C(#Cc1ccccc1)C[N+]1(CC#Cc2cccc3ccccc23)CCOCC1	9%	-11	.	1.6	.
O=C(O)CN(c1ccccc1F)S(=O)(=O)c1ccccc1	2%	-2	-24	-1.4	-21
c1ccc2c(c1)[nH]c1c(N3CCSCC3)ncnc12	.	0	-55	.	-4
Nc1nc(SCC(=O)Nc2cccnc2Cl)n[nH]1	2%	5	.	-0.3	-10
Cc1cc(C(F)(F)F)nn2cnnc12	-4%	3	.	.	4
O=C(c1ccccc1)C1CN(Cc2ccccc2)CCC1(O)c1ccccc1 (centres undefined)	25µM*	-4	.	6.0	100
COc1ccc2oc(C(=O)OCC(=O)N(C)CC(=O)Nc3ccc(F)cc3)c(C)c2c1	.	.	.	-3.9	3
